VDR inh – vitamin D3 receptor (human) inhibition; P11473; Potency, µM, without a hit: max response, negative = inhibition, most hits filed as inhibitors; 0.93% of 400,000 active; AID 504847; VDR-SRC2-3 peptide fluorescence polarization, 2 h; active = well fitted inhibition curve with a large enough effect; inconclusive = small, poorly fitted or top-dose-only effect, or another doubt; inactive = no such curve, though single readings can be large or run the other way; also: series mostly up to about 120 µM
Target sequence (P11473 whole entry, looked up): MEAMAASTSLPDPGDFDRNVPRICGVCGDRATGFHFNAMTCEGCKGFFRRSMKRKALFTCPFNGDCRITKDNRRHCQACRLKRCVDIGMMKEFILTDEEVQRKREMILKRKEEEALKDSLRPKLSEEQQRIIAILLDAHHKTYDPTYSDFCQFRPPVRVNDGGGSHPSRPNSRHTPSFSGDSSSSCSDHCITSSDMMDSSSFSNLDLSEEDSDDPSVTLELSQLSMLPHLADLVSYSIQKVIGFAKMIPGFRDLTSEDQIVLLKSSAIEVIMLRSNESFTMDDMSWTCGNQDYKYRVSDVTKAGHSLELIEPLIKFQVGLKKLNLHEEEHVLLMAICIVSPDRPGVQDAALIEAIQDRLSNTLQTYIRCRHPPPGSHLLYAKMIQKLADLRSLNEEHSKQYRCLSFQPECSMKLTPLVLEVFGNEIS
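Two reagent solutions held at 4 deg C in the dark were dispensed, compounds pinned at 23 nl, and the mixture incubated 2 h at room temperature. Read-out: fluorescence polarization of VDR–SRC2-3 peptide binding.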
The depositor's hits bear a star; ? = inconclusive; & = joins results of further samples; [ ] = dose if it differs, or a comment. % is scaled to controls: 0 for no effect and ±100 for the full control effect; potency is read from the fitted curve at half-maximal effect. These rows are one share of the data (hit frequency here may not be typical).

SMILES	VDR inh
CC(C)(C)NC(=O)CSc1nnc(C2CC2)n1-c1ccccc1	18%
O=C(O)C1CCCCC1C(=O)NCCCCc1ccccc1 (configuration not stated)	10%
Cc1ccc(-c2c[n+](CC(=O)Nc3c(C)cccc3C)c3n2CCC3)cc1	-6%
CC(C)Cc1nnc(NC(=O)CN2C(=O)NC3(CCCC3)C2=O)s1	8%
CCN(CC)C(=O)c1[nH]cnc1C(=O)NCC(=O)OC(C)(C)C	-18%
Cc1cc(C)nc(SCSc2nc(C)cc(C)n2)n1	-2%
CCCCCn1c(=O)c(-c2nc3ccccc3[nH]2)c(O)c2ccccc21	-5%
Cc1ccc(NC(=O)CCC(=O)c2ccc(Cl)s2)nc1	-1%
O=C(N/N=C/c1cccnc1)c1cc(-c2ccccc2Cl)nc2ccccc12	-4%
COc1cccc(CN(C)CC(O)COc2cc(Cl)ccc2Cl)c1 (configuration not stated)	-17%
Cc1cc(C)c(O)c(-c2cc(C(=O)Nc3c(C)n(C)n(-c4ccccc4)c3=O)[nH]n2)c1	-8%
COc1cccc(N2CCN(C(=O)c3cnn(-c4ccc(C)cc4C)c3C3CCN(C(=O)OC(C)(C)C)CC3)CC2)c1	0%
Cc1cc(C)n2nc(SCC(=O)N(CCC#N)c3ccc(F)cc3)nc2n1	-20%
Cc1ccc(C(C)C)c2c1C(c1ccc3c(c1)OCO3)CC(=O)O2 (configuration not stated)	-3%&-6%
CC(=O)Nc1ccc(S(=O)(=O)N2CCN(S(=O)(=O)c3ccc(NC(C)=O)cc3)CC2)cc1	-4%
Cc1c(C(=O)NC(=S)NCc2cccnc2)cccc1[N+](=O)[O-]	15%
Cc1ccc(S(=O)(=O)Nc2nc(C)c(C(=O)NNS(=O)(=O)c3cc(C)ccc3C)s2)cc1	24%
COC(=O)c1ccc(NS(=O)(=O)c2ccc(-n3cccn3)cc2)cc1	6%
Cc1ccc(CNc2nc3ccc(C)cc3n3cnnc23)cc1	-7%
CCC(=O)N1CCN(c2ccccc2NC(=O)c2ccc([N+](=O)[O-])o2)CC1	-4%
CC(C)(C)[C@H]1C=C(C(=O)O)O[C@@H](OCc2ccc(CO)cc2)C1	-6%
CCN(CC)C(=O)Cn1cc(C(=O)C(=O)N2CCN(c3ccc(OC)cc3)CC2)c2ccccc21	-9%
COc1ccccc1NC(=O)CCCn1c(=S)[nH]c2ccccc2c1=O	-7%
Cc1ccc2c(C(=O)CN3CCCC3)c(C)[nH]c2c1	8%
CCc1nnc(NC(=O)c2cc3ccccc3oc2=O)s1	-2%
Cc1ccc(S(=O)(=O)CCC(=O)OC(C)c2nnc(-c3cccs3)o2)cc1 (configuration not stated)	-10%
CN(C)N=Nc1ccc(S(N)(=O)=O)cc1	14%
CCNc1nc(Sc2ccc(C)cc2)cc(C(F)(F)F)n1	8%
CN(C)c1ncc2nc(-c3ccc(F)cc3)c(=O)n(Cc3cccs3)c2n1	-6%
O=C(CSc1cn(CC(=O)N2CCCCC2)c2ccccc12)NCc1ccccc1	1%
OCCc1c[nH]c2cc(F)ccc12	-14%
COc1ccc2c(CC(=O)OCc3nc4ccsc4c(=O)[nH]3)coc2c1	-8%
CCOc1ccc(NC(=O)CCC(=O)NNC(=O)c2ccco2)cc1	5%
CCn1c(CNc2ccc(F)cc2)nnc1SCCN1CCCCC1	5%
O=C(NCCCn1ccnc1)c1cc2ccccc2oc1=O	-1%
CCOc1ccc(-n2c(O)c(/C=N/Nc3nc(C)cc(C)n3)c3ccccc3c2=O)cc1	-10%
CCc1nnc2n1N=C(c1ccc(Cl)cc1Cl)CS2	5%
O=C(CSc1nnc(-c2ccc(Cl)cc2Cl)n1C1CCCCC1)NC1CCS(=O)(=O)C1 (configuration not stated)	5%
CN1C[C@@H]2[C@@H]3C(=O)N(C)C(=O)[C@@H]3[C@](C)(C1=O)N2C(=O)c1ccc(Br)cc1	-10%
CCN(CC(=O)NCc1ccncc1)S(=O)(=O)c1cc(Cl)ccc1Cl	-2%
NS(=O)(=O)c1ccc(NC(=O)c2ccc(S(=O)(=O)N3CCCCC3)cc2)cc1	-4%
Cc1c(C(=O)N2CCCC2)sc(NC(=O)c2cccs2)c1C#N	19%
CC(NC(=S)Nc1ccc(Cl)cc1)C(c1ccccc1)N1CCOCC1 (configuration not stated)	11%
CCn1nc(NC(=O)C(C)C)c2cc3cccc(C)c3nc21	-13%
CCOc1ccc(C(=O)c2cn(CC(=O)Nc3ccc(C)c(Cl)c3)c3ccc(OCC)cc3c2=O)cc1	-1%
N=c1c(C(=O)NCc2ccco2)cc2c(=O)n3ccccc3nc2n1C1CCCC1	-15%
COCCn1c(SCC(=O)NCc2ccc3c(c2)OCO3)nc2ccccc2c1=O	0%
COc1ccccc1CNC(=O)COC(=O)/C=C/c1ccc2c(c1)OCO2	8%
COc1ccc(N2CC(NC(=O)c3ccco3)CC2=O)cc1 (configuration not stated)	-6%
COc1cccc(CN2CCN(Cc3ccc4c(c3)OCCO4)CC2CCO)c1 (configuration not stated)	-13%
COc1ccc(OCc2nn3c(Cn4cnc5ccccc54)nnc3s2)cc1	-25%
O=C(CCc1nnc(Cc2c[nH]c3ccccc23)o1)NC1CCCC1	0%
Cn1c(=O)cc(SCC(=O)NCCN2CCN(c3ccccc3F)CC2)c2cc(Cl)ccc21	2%
C[C@H](NC(=O)c1nc[nH]c1C(=O)N[C@H](C)c1ccccc1)C(=O)OCc1ccccc1	-6%
CC(=O)Nc1ccc(N=Cc2c(O)c(C(=O)Nc3ccccc3)cc3ccccc23)cc1	-14%
Cc1c(CC(=O)NCCCC(=O)O)c(=O)oc2cc3c(cc12)CCC(C)(C)O3	?
O=C(CC(=O)Nc1cc(Cl)ccc1Cl)Nc1cc(Cl)ccc1Cl	36%[activator]
O=C(CCN1C(=O)COc2ccccc21)NCCCN1CCCC1	14%
O=C(Nc1ccc(-c2nnco2)cc1)c1ccccc1	5%
O=C1NC(=O)/C(=C/c2ccc3nccnc3c2)S1	-8%

As a short view, 21 of the compounds above.
SMILES	VDR inh
CCc1nnc2n1N=C(c1ccc(Cl)cc1Cl)CS2	5%
O=C(CSc1nnc(-c2ccc(Cl)cc2Cl)n1C1CCCCC1)NC1CCS(=O)(=O)C1 (configuration not stated)	5%
CN1C[C@@H]2[C@@H]3C(=O)N(C)C(=O)[C@@H]3[C@](C)(C1=O)N2C(=O)c1ccc(Br)cc1	-10%
CCN(CC(=O)NCc1ccncc1)S(=O)(=O)c1cc(Cl)ccc1Cl	-2%
NS(=O)(=O)c1ccc(NC(=O)c2ccc(S(=O)(=O)N3CCCCC3)cc2)cc1	-4%
Cc1c(C(=O)N2CCCC2)sc(NC(=O)c2cccs2)c1C#N	19%
CC(NC(=S)Nc1ccc(Cl)cc1)C(c1ccccc1)N1CCOCC1 (configuration not stated)	11%
CCn1nc(NC(=O)C(C)C)c2cc3cccc(C)c3nc21	-13%
CCOc1ccc(C(=O)c2cn(CC(=O)Nc3ccc(C)c(Cl)c3)c3ccc(OCC)cc3c2=O)cc1	-1%
N=c1c(C(=O)NCc2ccco2)cc2c(=O)n3ccccc3nc2n1C1CCCC1	-15%
COCCn1c(SCC(=O)NCc2ccc3c(c2)OCO3)nc2ccccc2c1=O	0%
COc1ccccc1CNC(=O)COC(=O)/C=C/c1ccc2c(c1)OCO2	8%
COc1ccc(N2CC(NC(=O)c3ccco3)CC2=O)cc1 (configuration not stated)	-6%
COc1cccc(CN2CCN(Cc3ccc4c(c3)OCCO4)CC2CCO)c1 (configuration not stated)	-13%
COc1ccc(OCc2nn3c(Cn4cnc5ccccc54)nnc3s2)cc1	-25%
O=C(CCc1nnc(Cc2c[nH]c3ccccc23)o1)NC1CCCC1	0%
Cn1c(=O)cc(SCC(=O)NCCN2CCN(c3ccccc3F)CC2)c2cc(Cl)ccc21	2%
C[C@H](NC(=O)c1nc[nH]c1C(=O)N[C@H](C)c1ccccc1)C(=O)OCc1ccccc1	-6%
CC(=O)Nc1ccc(N=Cc2c(O)c(C(=O)Nc3ccccc3)cc3ccccc23)cc1	-14%
Cc1c(CC(=O)NCCCC(=O)O)c(=O)oc2cc3c(cc12)CCC(C)(C)O3	?
O=C(CC(=O)Nc1cc(Cl)ccc1Cl)Nc1cc(Cl)ccc1Cl	36%[activator]

(further entries)
SMILES	VDR inh
Cc1ccc(CCNC(=O)c2cc3ccccn3n2)cc1	4%
O=C(Cc1cccs1)NC(Cc1c[nH]c2ccccc12)C(=O)O (configuration not stated)	-11%
CN1CCc2c(n(CC(O)CN3CCN(CCO)CC3)c3ccccc23)C1=O (configuration not stated)	-5%
O=C1CC(N2CCCc3ccccc32)C(=O)N1c1ccccc1 (configuration not stated)	21%
NC(=O)c1ccsc1NC(=O)C1CC1	-5%
CC(=O)N1[C@H](Cc2ccccc2)C=C[C@]1(C)C(=O)NCc1ccc(C)o1	-13%
Cc1nn(CC(=O)N2CCN(c3ccccc3)CC2)c(=O)c2cc3sccc3n12	-15%
CCCN(CCC)CCCNC(=O)c1cc2c(-c3ccc(Cl)cc3)nn(C)c2s1	9%
Cc1c(NC(=O)c2cc(-c3ccc(Cl)s3)nc3ccccc23)c(=O)n(-c2ccccc2)n1C	-4%
O=C(c1cnccn1)N1CCN(C/C=C/c2ccccc2)CC1	17%
Cc1ccc(-c2cccc([C@H]3[C@@H]4C=CC[C@@H](C)[C@@H]4C(=O)N3Cc3ccccc3)c2)cc1	?
O=C(c1ccc(S(=O)(=O)N2CCOCC2)cc1)N(c1ccc(F)cc1)C1C=CS(=O)(=O)C1 (configuration not stated)	1%
CC(=O)c1ccc(NS(=O)(=O)c2cccc(C(=O)Nc3ccccc3C(=O)O)c2)cc1	-16%
COc1cc2c(cc1NC(=O)c1cccc(S(=O)(=O)N(C)C)c1)oc1ccccc12	4%
CCC1(C)Cc2ccccc2-c2[nH][nH]c(=O)c21 (configuration not stated)	25%
O=C(c1ccc(C#CC2(O)CCCCC2)cc1)N1CCN(C(c2ccccc2)c2ccccc2)CC1	3%
CCOc1cc2[nH]c(=O)n(CCCC(=O)N3CCN(c4ccc(OC)cc4)CC3)c(=O)c2cc1OCC	13%
Fc1ccccc1-c1nc(N2CCCCC2)c2ccccc2n1	-4%
O=C(Nc1ccc2c(c1)OCCO2)C1CCN(c2ncccn2)CC1	30%
Cc1ccc(NC(=O)c2cccc(S(=O)(=O)N3CCN(c4ccc(F)cc4)CC3)c2)nc1	-19%
Cc1cc(C)cc(C(=O)Nc2ccc(N3CCCC3)cc2)c1	3%
COC(=O)C1=CN(Cc2cccs2)C=C(C(=O)OC)C1c1ccc(OC)cc1OC	7%
O=C(NCC(c1cccnc1)N1CCN(c2ccccc2F)CC1)c1ccc(F)cc1 (configuration not stated)	10%
COc1ccc(-c2nc(CSCC(=O)NCCc3ccc(C)cc3)c(C)o2)cc1OC	-5%
Nc1ccc(Br)c2cccnc12	-12%
Cc1ccc(NC(=S)NC(=O)c2ccc(F)cc2)cc1S(=O)(=O)Nc1cccc(Cl)c1	1%
COc1ccc(NC(=O)C2CCN(S(=O)(=O)c3cccc4nonc34)CC2)cc1	-4%
CCC(C)NC(=O)c1cc(-c2ccc3c(c2)OCO3)on1 (configuration not stated)	9%
CCOc1ccc(C2C(C(=O)O)CCC(=O)N2C2CCCCC2)cc1 (configuration not stated)	7%
COc1cc(C(=O)NCC(=O)N/N=C/c2ccc(-c3ccc([N+](=O)[O-])cc3)o2)cc(OC)c1OC	-9%
CCOC(=O)CCn1c2nc(C)cc(C)c2c(=O)n1-c1ccccc1	3%
COC(=O)c1ccc(-n2nnc(-c3nsc(NC(=O)c4ccc(Cl)cc4)n3)c2C)cc1	-4%
C=CCn1cc(CN2CCC(C(=O)Nc3cccc(-c4cccc(Cl)c4)c3)CC2)c(C)n1	-10%
CCOC(=O)N1CCN(C(=O)CCn2nc(-c3ccccc3)ccc2=O)CC1	-7%
Cc1nc(N2C(=O)C(=O)/C(=C(/O)c3ccccc3)C2c2ccco2)sc1C (configuration not stated)	-6%
CS(=O)(=O)c1ccc(-c2cc(Br)sc2-c2ccc(F)cc2)cc1	-1%

4 of the entries above in order of their number in VDR inh, falling:
Structure | VDR inh
Cc1ccc(NC(=S)NC(=O)c2ccc(F)cc2)cc1S(=O)(=O)Nc1cccc(Cl)c1 | 1%
COc1ccc(NC(=O)C2CCN(S(=O)(=O)c3cccc4nonc34)CC2)cc1 | -4%
CCOC(=O)N1CCN(C(=O)CCn2nc(-c3ccccc3)ccc2=O)CC1 | -7%
COc1cc(C(=O)NCC(=O)N/N=C/c2ccc(-c3ccc([N+](=O)[O-])cc3)o2)cc(OC)c1OC | -9%

Continuation.
SMILES	VDR inh
C=C1CC2C(=O)N(Cc3ccccc3)C(C(=O)OCC)(C(=O)OCC)C1N2C(=O)OC(C)(C)C (configuration not stated)	-6%&-11%
CCOC(=O)C(C)Oc1ccc(C2NC(=O)NC(C)=C2C(C)=O)cc1Br (configuration not stated)	20%
CCCc1nnc(-c2ccc(OC)cc2)o1	-13%
Cc1n[nH]c(=O)c2c(NC(=O)CSc3nc4ccccc4c(=O)n3CCCOC(C)C)oc(C)c12	-26%
COc1ccc(OC(=O)c2cnn(-c3ccccc3)c2C)cc1	9%

Screening data deposited in PubChem BioAssay by National Center for Advancing Translational Sciences (NCATS).
